High-throughput results as filed in PubChem BioAssay.
Autofluor counter = counter-screen for toxin protease inhibitors: compound fluorescence; compound autofluorescence counterscreen, microsphere flow cytometry; hits give high values; fluorescence intensity (test concentration not listed); 3.1% of 360,000 active; AID 624483;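 active means at least 3 SD above the mean of all compounds, about 16000 in these data; inconclusive means too few beads counted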;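 further: 100 nL of 1 mM stock went into each well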
PrP 5UTR inh = inhibition of PrP 5' UTR reporter expression. cell-based PrP 5' UTR mRNA reporter, plate reader. inhibition, % (concentration not given with the values). 0.35% of 340,000 active. AID 488862;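 active means every replicate at 50% or more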;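 further: 0 = median of the neutral control wells; tested in H4 reporter cells; numbers are from one replicate; inactives centre near -14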
BJeLR lethal = BJeLR cell viability loss | inhibition, % (concentration not given with the values) | BJeLR (HRASV12) viability, CellTiter-Glo ATP luminescence, 48 h; reference of the scale not given here | AID 1554 | 0.17% of 300,000 active;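 active means replicate mean above 50%; inconclusive means above 50% but judged a plate artefact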;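 further: 50 nL library stock added to about 25 µL; numbers are from one replicate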
Sa ugtP lethal = growth inhibition of S. aureus ugtP deletion strain; S. aureus RN4220 ugtP deletion, OD600 growth, 16 h; some inactives read as strong as hits; growth inhibition, % (test concentration not listed); 0.54% of 330,000 active; AID 1259309;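 active means z-score under -3 and OD600 up to 0.15 on both plates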;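 further: plate controls were untreated wells for no effect and antibiotic for full effect; wells of about 80 µL received 100 nL stock; the first replicate is given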
Sa RN4220 lethal = kills Staphylococcus aureus RN4220. 0.33% of 330,000 active. S. aureus RN4220 growth, OD600, 16 h. AID 1259311. inhibition, % (no concentration beside the values);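 active means z-score of -3 or lower and OD600 up to 0.18 on both plates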;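 further: plate controls were untreated cells for no effect and reference antibiotic for full effect; stock transfer was 100 nL into about 80 µL; one replicate is shown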
Mtb hypoxia inh = inhibitors of hypoxia-regulated fluorescent reporter in Mycobacterium tuberculosis. M. tuberculosis hypoxia-regulated fluorescent reporter, fluorescence. 0.1% of 300,000 active. fluorescence inhibition, % (no concentration beside the values);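 active means 35 to 45% if threefold the growth effect, above 45% if 1.5-fold the growth effect; inactive means the rest, general growth blockers included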;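 further: wells of about 50 µL received 100 nL stock; 0% = vehicle wells and 100% = reference inhibitor wells; whole bacteria with a GFP reporter of the hypoxia response; strong numbers were not always called active; many hits fall short of the cut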
Mtb hypoxia inh growth = further read-out of Mtb hypoxia inh, marked with its call; growth inhibition, %; measured here: M. tuberculosis growth (absorbance);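 0% = vehicle and 100% = reference antibiotic; read after six days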
The depositor's hits bear a star; ? = inconclusive; · = not tested or not shown.

Below each SMILES – Mtb hypoxia inh | Sa ugtP lethal | Mtb hypoxia inh growth | BJeLR lethal | PrP 5UTR inh | Autofluor counter | Sa RN4220 lethal
1: O=C(CCN1CCN(C(=O)c2ccccc2)CC1)c1ccc(Br)cc1
    6 | 23 | 4 | -1 | -15 | 3555 | 9.1
2: CCN1C(=O)c2ccc(C(=O)Nc3ccc4c(c3)OCO4)cc2C1=O
    15 | 3 | 3 | 0 | -10 | 5683 | 1.5
3: CCOC(=O)c1nn(-c2ccc(F)cc2)c(C)c1C(C)=O
    -9 | -3 | 2 | -10 | -22 | 2693 | 2.4
4: Cc1ccc(OCC(=O)NN=Cc2cc([N+](=O)[O-])ccc2N2CCCCC2)cc1
    7 | -11 | 7 | · | · | · | 16
5: Cc1c(C(=O)O)cnc2c([N+](=O)[O-])cnn12
    10 | 10 | 1 | -1 | -20 | 2617 | 4.3
6: Cc1cc(C)cc(N=c2c([N+](=O)[O-])nn(-c3ccc(Cl)cc3)n2O)c1
    24 | 39 | 14 | 8 | -22 | 3337 | 29
7: O=C(CCN1CCN(c2ccc(F)cc2)CC1)Nc1ccccc1F
    · | 5 | · | -5 | -11 | 2234 | 1.9
8: COC(=O)[C@H]1CCCN1C(=O)Nc1cccc(Oc2c(F)c(F)c(F)c(F)c2F)c1
    · | 7 | · | · | -9 | 4022 | 17
9: CCON1C(=O)C(C)(C)N(OCC)C(=O)C1(C)C
    14 | 3 | 12 | -1 | -14 | 4536 | 2.1
10: COc1cc(C(=O)NNC(=O)CCOc2ccccc2C)cc(OC)c1OC
    5 | 7 | 6 | · | -5 | 3099 | 3.7
11: O=C(NCc1ccccn1)c1ccccc1Cl
    6 | 2 | 13 | 2 | -24 | 23233* | 4.3
12: O=C1CC(N2CCN(c3ccc(F)cc3)CC2)C(=O)N1Cc1ccc(N2CCCC2=O)cc1 (stereo unspecified)
    2 | 6 | 5 | -15 | -19 | 4530 | 7.8
13: C=CCc1ccccc1OCC(O)CNC(=O)c1ccccc1C(=O)O (stereo unspecified)
    12 | 6 | -2 | 1 | -23 | 4288 | 1.5
14: O=c1c2c(-c3ccccc3)csc2ncn1N=Cc1c2ccccc2cc2ccccc12
    8 | -18 | 10 | · | · | · | 0.9
15: Nc1c(C(=O)OCC2CCCO2)c2nc3ccccc3nc2n1-c1ccc2c(c1)OCCO2 (stereo unspecified)
    3 | -12 | -6 | -2 | · | · | -4.1
16: Cc1c(C)n(CCC#N)c2ccccc12
    -3 | 22 | 2 | 5 | -8 | 10769 | 4.8
17: Cc1ccc2c(c1)Oc1ccccc1C=C2C(=O)O
    12 | -1 | -7 | 11 | -20 | 3822 | 12
18: CC(NC(=O)CSc1nc(=O)cc(N)n1CCc1ccccc1)c1ccccc1 (stereo unspecified)
    3 | 8 | 5 | · | -12 | 9450 | 3.8
19: O=C(COc1ccccc1F)c1ccc(O)cc1O
    2 | -2 | 6 | 11 | -28 | 20781* | 10
20: CCN(CC(=O)Nc1ccccc1C(F)(F)F)C(=O)C1CC(=O)N(Cc2ccccc2)C1 (stereo unspecified)
    7 | 1 | 5 | 2 | -27 | 5317 | 3.6
21: CC1CCCN(C(=O)CNC(=O)c2cccs2)C1 (stereo unspecified)
    19 | -2 | 7 | · | -30 | 5784 | -2.7
22: CC(C)C(=O)Nc1ccc(C(=O)CSc2nnc(C3CC3)n2C2CC2)cc1
    14 | 8 | 3 | · | -26 | · | 4.9
23: Cc1ccc(CNC(=O)COC(=O)c2cc3c(s2)CCC(C)C3)cc1 (stereo unspecified)
    -15 | 1 | -15 | 8 | -13 | 2456 | 4.6
24: NC(=O)NN=Cc1ccc(-c2cccc(C(F)(F)F)c2)o1
    -1 | -5 | -5 | · | · | · | 5.1
25: CSc1nc2ccc(NC(=O)c3ccc(=O)[nH]c3)cc2s1
    -4 | -2 | -3 | -4 | 0 | 4378 | -1.4
26: CC(C)(C)c1ccc(C(=O)NCC(=O)NCc2ccccn2)cc1
    1 | -2 | 0 | · | -42 | 9107 | -0.1
27: COc1ccccc1CC(=O)N1CCOCC1
    -5 | 1 | 1 | 2 | -67 | 3917 | 2.8
28: CCOC(=O)C(NCc1ccco1)(NC(=O)c1ccc(OC)cc1)C(F)(F)F (stereo unspecified)
    · | -4 | · | 10 | -4 | 2667 | 0.0
29: C=CCN1C(=O)NC(=O)/C(=C/c2cnc(SC)nc2)C1=O
    · | -2 | · | 4 | -13 | 3646 | -2.4
30: CN1CCN(C(c2ccccn2)c2cc(Cl)c3cccnc3c2O)CC1 (stereo unspecified)
    -3 | -4 | -1 | 1 | -21 | 4158 | 6.8
31: Brc1ccc(C2=NC(Cc3ccccc3)CO2)cc1 (stereo unspecified)
    18 | 4 | 2 | 0 | -43 | 2979 | 8.6
32: CCOC(=O)C1Nc2ccc(C(=O)O)cc2C2C=CCC12 (stereo unspecified)
    · | · | · | -14 | -20 | 4075 | ·
33: CCN(CC)C(=O)C(=O)Nc1ccc(OCc2ccccc2)cc1
    1 | -1 | 14 | 8 | -26 | 3826 | 0.5
34: Cc1ccsc1/C=N/NC(=O)c1nnn(-c2nonc2N)c1C(C)C
    · | · | · | -22 | -8 | 5480 | ·
35: O=C(CSc1nc(-c2ccccc2)cs1)Nc1cccc([N+](=O)[O-])c1
    5 | -33 | 11 | -2 | -14 | 1982 | -14
36: COCCCNC(=O)/C(C#N)=C1\N=C(NC(=O)c2cccs2)c2ccccc21
    8 | -5 | 8 | -10 | -38 | 4385 | 15
37: O=C(NCCC1=CCCCC1)c1ccc(-n2cncn2)c([N+](=O)[O-])c1
    1 | 5 | 7 | -9 | -4 | ? | -2.0
38: CC/C(=C\C=C\[C@@H]1C=C[C@@H]2CCC[C@H]2[C@@H]1C(=O)c1ccc[nH]1)[C@@H]1O[C@@H]([C@@H](C)C(=O)O)CC[C@@H]1C
    10 | 99* | 9 | -11 | 0 | · | 100*
39: c1ccc(-n2c(-c3ccncc3)nnc2N2CCOCC2)cc1
    4 | 6 | 7 | 19 | -13 | 11144 | 3.2
40: OCCNCc1cccc2ccccc12
    8 | 1 | 0 | 4 | -23 | 2531 | 1.6

In the list so far, these contain bromine:
Below each SMILES – Mtb hypoxia inh | Sa ugtP lethal | Mtb hypoxia inh growth | BJeLR lethal | PrP 5UTR inh | Autofluor counter | Sa RN4220 lethal
1: O=C(CCN1CCN(C(=O)c2ccccc2)CC1)c1ccc(Br)cc1
    6 | 23 | 4 | -1 | -15 | 3555 | 9.1
31: Brc1ccc(C2=NC(Cc3ccccc3)CO2)cc1 (stereo unspecified)
    18 | 4 | 2 | 0 | -43 | 2979 | 8.6

Further compounds.
Below each SMILES – Mtb hypoxia inh | Sa ugtP lethal | Mtb hypoxia inh growth | BJeLR lethal | PrP 5UTR inh | Autofluor counter | Sa RN4220 lethal
41: O=C(CSc1nnc(CCCN2C(=O)c3cccc4cccc(c34)C2=O)n1-c1ccccc1)NCCCO
    3 | -8 | 6 | -7 | -24 | 8635 | -2.5
42: Cn1c(Cc2ccccc2)nnc1SCCC(=O)Nc1ccccc1
    · | -2 | · | -1 | -33 | 4776 | 0.5
43: CN(C)C(=O)Oc1cccc2c(OC(=O)N(C)C)cccc12
    · | 1 | · | 10 | -8 | 3954 | 2.4
44: Cc1ccsc1C(=O)N1CCN(S(=O)(=O)c2cccs2)CC1
    4 | 3 | 3 | 1 | -9 | 4245 | 7.3
45: C/C(=N\Nc1ccccn1)c1cccs1
    · | · | · | -16 | -47 | 4376 | ·
46: O=C(O)C1CCN(Cc2cccnc2)CC1
    -1 | 4 | 7 | 7 | -23 | 4859 | 0.5
47: C/C(CC(=O)Nc1ccccn1)=N\NC(=O)c1ccccc1O
    · | · | · | -2 | -31 | 5838 | ·
48: O=C(CSc1nnc(-c2c[nH]c3ccccc23)n1CC1CCCO1)Nc1ccc2c(c1)OCCO2 (stereo unspecified)
    16 | -2 | 10 | -21 | -26 | 3122 | 5.4
49: O=C(O)C(Cc1ccccc1)N=C(NS(=O)(=O)c1ccccc1)c1ccccc1 (stereo unspecified)
    6 | 28 | 8 | · | -9 | 4138 | 7.3
50: CCOC(=O)N1CCN(C(=O)CS(=O)Cc2nc(-c3cccc(C)c3)oc2C)CC1 (stereo unspecified)
    · | · | · | 3 | -14 | 4591 | ·
51: Cc1ccc(N2C(=S)SC3CS(=O)(=O)CC32)cc1 (stereo unspecified)
    1 | -3 | 1 | -2 | -21 | 2234 | 4.1
52: CC(=O)c1cccc(NC(=O)C2=CC(c3ccco3)=NS(=O)(=O)N2C)c1
    -3 | 2 | -8 | 4 | -5 | 4719 | 0.5
53: Cc1cnc(C(=O)OCC(=O)N2CC(C)CC(C)C2)cn1 (stereo unspecified)
    -5 | 1 | 6 | · | -13 | 4520 | 0.0
54: Cc1nn(CC(=O)N2c3ccccc3NC(=O)C2(C)C)c(C)c1[N+](=O)[O-]
    4 | 4 | 5 | 7 | -2 | 4632 | 3.8
55: COc1ccccc1NC(=S)N(CCN(C)C)C(C)c1ccncc1 (stereo unspecified)
    5 | 17 | 12 | 0 | -7 | 3871 | 4.9
56: Cc1ccc(NC(=O)N2CCC(=O)N2)cc1
    -14 | -4 | 12 | -16 | -5 | 23674* | 0.0
57: CCC(NC(=O)COC(=O)C1CC2CCCC(C1)C2=O)c1ccc(Br)cc1 (stereo unspecified)
    4 | 14 | 3 | -2 | -12 | 5802 | 1.0
58: O=C(COC(=O)c1ccccc1C(F)(F)F)NC(=O)NCc1ccco1
    7 | 6 | 6 | · | -31 | 8024 | 5.9
59: Cc1ccc(NC(=O)Cn2cnc3c(oc4nc5c(cc43)COC(C)(C)C5)c2=O)cc1
    14 | 6 | -2 | -3 | -4 | 2467 | 2.9
60: O=c1[nH]c2ccccc2n1CCCOc1ccccc1
    · | -3 | · | 3 | -22 | 4751 | -0.2
61: COc1cccc(CNCCOCCO)c1OC
    6 | -5 | 1 | -1 | -14 | 3468 | -14
62: O=S(=O)(NCC(c1cccnc1)N1CCOCC1)c1cccs1 (stereo unspecified)
    6 | -1 | 1 | -4 | -7 | 6219 | 3.8
63: O=C(NCc1ccco1)c1cc(-c2cccs2)nc2ccccc12
    -1 | 1 | 11 | -2 | -14 | 2339 | 0.0
64: COc1ccc(NC(=O)C2CC=CC3CCN(C4CCCCC4)C(=O)C32)cc1 (stereo unspecified)
    5 | -1 | 10 | · | · | · | 1.5
65: CCC(=O)Nc1cc(C(C)(C)C)ccc1C(C)=O
    4 | 2 | -1 | -13 | -17 | 2462 | 1.1
66: O=C(c1cccc(NC2=NC3CS(=O)(=O)CC3S2)c1)N1CCN(c2ccc(F)cc2)CC1 (stereo unspecified)
    8 | 1 | 10 | -4 | -6 | 5795 | -13
67: Cc1ccc(-c2nc(CS(=O)CC(=O)NCCN3CCCCC3C)c(C)o2)cc1 (stereo unspecified)
    -2 | -2 | 6 | -1 | 3 | 6066 | -0.4
68: Cc1nc(=S)c2c([nH]1)-c1ccccc1CC21CCCCC1
    10 | 58 | 8 | -10 | 0 | · | -2.9
69: O=C(O)CCn1c(-c2ccccc2)cc2c1CCCC2=O
    6 | 9 | 6 | -4 | -22 | 5385 | 4.1
70: CC1Cc2ccccc2N1CC(=O)Nc1ccc2c(c1)OCCCO2 (stereo unspecified)
    25 | 5 | 8 | · | -19 | 3193 | 3.3
71: CCn1c(C)nc2cc(C(=O)N/N=C/c3cccc(O)c3O)ccc21
    · | · | · | -6 | -6 | 4509 | ·
72: CCCCN(CC)C(=O)CSc1nc2n[nH]c(C)c2c(=N)n1-c1cccc(C)c1
    5 | -8 | -6 | -5 | -12 | 2035 | 7.3
73: CC(C)COc1cccc(C(=O)NC2(C)CCS(=O)(=O)C2)c1 (stereo unspecified)
    5 | 0 | 8 | -11 | -9 | 6061 | 0.9
74: CCCNCc1cc(Cl)c(OCC)c(Cl)c1
    -2 | -4 | 7 | 8 | 1 | ? | 2.8
75: CCc1ccc(CC2(O)CC(C)N(C)CC2C)cc1 (stereo unspecified)
    0 | 31 | 9 | -3 | -6 | 2414 | -3.7
76: CC(C)N1CCC(=NNC(=O)c2ccccc2[N+](=O)[O-])CC1
    4 | 3 | -7 | -12 | -15 | 2171 | 1.3
77: CC(C)(C)c1ccc(-c2nc3c(C#N)c(-c4ccc5c(c4)OCO5)ccn3n2)cc1
    0 | 0 | 3 | 11 | -14 | 20531* | -3.2
